# Ecoli rRNA inh – reduced GFP signal of wild-type E. coli, primary screen, bacterial rRNA inhibitor project, GFP/RFP fluorescence, OD600, single point; E. coli WT GFP vs humanized-ribosome RFP mutants, 24 h; hits give low values; DMSO median 0, no signal -100; GFP signal change (wild-type ribosome), % (concentration not given with the values); 350,000 tested, 1.6% active;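 active means significant combined selectivity score with lowered wild-type GFP, culture density cut under 30%, mutant RFP and density less affected; inactive means any of these conditions unmet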; further: one replicate is shown; some compounds called inactive have numbers as strong as hits
# MLL AF4-AF9 inh – inhibitors of AF4 peptide binding to AF9, primary screen, biochemical, AlphaScreen, biotin-AF4 peptide, FLAG-AF9, single point; Protein AF-9 (Homo sapiens), P42568; inhibition, % at 10 µM; 350,000 tested, 0.47% active;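 active means every replicate reaching a set inhibition limit, whatever the replicate mean, cut at about 25% in these data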;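 further: 0% = plate neutral control median and 100% = total signal loss; the record names both 10 and 1 µM as test concentration; the first replicate is given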
# Target sequence (P42568 whole entry, looked up): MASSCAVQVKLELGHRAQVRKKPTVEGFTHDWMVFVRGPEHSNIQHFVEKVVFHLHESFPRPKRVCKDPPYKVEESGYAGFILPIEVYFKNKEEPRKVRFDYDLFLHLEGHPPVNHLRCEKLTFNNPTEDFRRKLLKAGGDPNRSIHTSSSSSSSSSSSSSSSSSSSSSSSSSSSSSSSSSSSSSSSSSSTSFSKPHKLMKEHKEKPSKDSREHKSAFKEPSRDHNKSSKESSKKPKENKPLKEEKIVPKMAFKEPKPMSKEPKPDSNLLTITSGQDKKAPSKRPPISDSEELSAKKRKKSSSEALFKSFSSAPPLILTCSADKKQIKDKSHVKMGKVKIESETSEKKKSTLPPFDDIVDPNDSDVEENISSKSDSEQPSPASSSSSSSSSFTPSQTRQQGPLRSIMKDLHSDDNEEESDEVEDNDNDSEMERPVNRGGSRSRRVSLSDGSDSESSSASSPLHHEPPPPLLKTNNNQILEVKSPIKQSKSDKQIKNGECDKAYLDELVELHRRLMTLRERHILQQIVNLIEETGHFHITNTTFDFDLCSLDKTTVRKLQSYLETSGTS
# Vif TR-FRET – inhibitors of Vif binding to APOBEC3G peptide, primary screen, biochemical, TR-FRET, GST-Vif 1-94, biotin-A3G peptide, dose response retest (AID 1117319); Virion infectivity factor (Human immunodeficiency virus type 1 group M subtype B (isolate …; TR-FRET GST-Vif / biotin-A3G peptide binding; higher % means a stronger effect; test concentration not given here; strong numbers were not always called active; one-dose inhibition, %; IC50 in µM for titrated hits; 260,000 tested, 0.57% active;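 active means above the screen mean plus three standard deviations and confirmed in dose response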;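 further: Vif residues 1-94 fused to GST binding biotinylated APOBEC3G peptide 110-148; 0% = full assay without inhibitor and 100% = GST in place of GST-Vif; retest series ran down from 100 µM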
# Ecoli rRNA inh OD600 – second read-out of Ecoli rRNA inh, no call of its own (marks repeat the call); OD600 change, %; measured here: OD600 growth;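 optical density of the mix in the first replicate; 0 = DMSO median and -100 = no signal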
# Ecoli rRNA inh RFP – second read-out of Ecoli rRNA inh, no call of its own (marks repeat the call); RFP signal change, %; measured here: RFP humanized mutant strains;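 first replicate; 0 = DMSO median and -100 = no signal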
# * hit, by the source's call; & = joins results of further samples. These rows are one share of the data; the hit share may differ from the screen's.
SMILES,Ecoli rRNA inh,Ecoli rRNA inh OD600,Ecoli rRNA inh RFP,MLL AF4-AF9 inh,Vif TR-FRET
CC(C)CNC(=O)CSc1ccc(S(=O)(=O)N(C)C2CCCCC2)cn1,-8,-20,0.7,-0.6,-11%
Oc1ccccc1C1SC(c2ccccc2O)SC(c2ccccc2O)S1 (configuration not stated),-62,-78,-20,-2.0,-9%
O=C(CCCN1CCN(c2ccccc2)CC1)c1ccc(F)cc1,8,11,6.6,3.4,-6%
CCC1(c2ccccc2)SC(N)=NC1=O (configuration not stated),12,14,0.4,1.4,-3%
Cc1cn([C@H]2C[C@H](O)[C@@H](CNC=O)O2)c(=O)[nH]c1=O,18,6,-0.1,-2.0,-6%
COc1ccc(S(=O)(=O)N2CCN(C(=O)[C@@H]3CCCN3C(=O)c3cccs3)CC2)cc1,-1,4,-0.6,0.7,-1%
CC1CN(Cc2cnc(Cl)s2)CC(C)O1 (configuration not stated),11,-4,0.5,-0.2,-5%
CCC(=O)N1CCc2cc(Br)c(S(=O)(=O)CCC(=O)NCCc3ccccc3)cc21,13,11,-0.1,-9.0,-4%
CCOC(=O)c1ccccc1NC(=O)COC(=O)Cc1ccccc1F,0,-4,-3.0,-4.1,3%
CN(C)CCCNC(=O)C[C@H]1C[C@H](C(=O)N2CCOCC2)[C@@]2(C)c3[nH]c4cc(CCC(=O)N(C)C)ccc4c3CCN2C1=O,19,12,-0.3,1.2,3%
COC(=O)C1=C/CCCN(C(c2ccccc2)c2ccccc2)/C=C\1C(=O)OC,-1,-10,0.5,2.1,12%
COc1ccc(Cl)cc1C=CC=NNS(=O)(=O)c1ccc(C)cc1,-19,-38,-0.6,1.6,-5%
COc1ccc(Br)cc1/C=C/C(=O)OCC(=O)NCCc1ccc(S(N)(=O)=O)cc1,2,-15,5.9,2.5,4%
COc1cc(/C=C/C(=O)OCC(=O)Nc2cc(C)on2)ccc1OCC#N,15,13,3.1,-25,-4%
C[C@@H]1C(c2ccc(F)cc2)=NN(c2ccccc2)[C@H]1C(=O)N1CCOC1=O,4,6,0.3,-3.3,8%
O=C(Cn1cc([N+](=O)[O-])ccc1=O)NCC1COc2ccccc2O1 (configuration not stated),-54,-65,-23,3.0,-9%
Cc1ccc(S(=O)(=O)CCC(=O)OCC(=O)NCc2ccc(F)cc2)cc1,4,4,0.4,1.9,0%
COc1ccc(C(=O)NC(C)Cc2c[nH]c3ccccc23)cc1 (configuration not stated),2,-13,-4.3,4.5,4%
CCCCNc1ccc2c(c1)C1CC2CCN1C(=O)OCc1ccccc1 (configuration not stated),-4,0,1.2,6.5,-5%
CC(=O)c1c(C)[nH]c(C(=O)OCC(=O)N2CCN(c3ccccc3)CC2)c1C,1,-2,-3.1,-3.8,-1%

# 3 consecutive compounds from above, quoted:
SMILES,Ecoli rRNA inh,Ecoli rRNA inh OD600,Ecoli rRNA inh RFP,MLL AF4-AF9 inh,Vif TR-FRET
CC(C)CNC(=O)CSc1ccc(S(=O)(=O)N(C)C2CCCCC2)cn1,-8,-20,0.7,-0.6,-11%
Oc1ccccc1C1SC(c2ccccc2O)SC(c2ccccc2O)S1 (configuration not stated),-62,-78,-20,-2.0,-9%
O=C(CCCN1CCN(c2ccccc2)CC1)c1ccc(F)cc1,8,11,6.6,3.4,-6%

# Six structures out of the list, sorted by formula weight, highest first.
SMILES,Ecoli rRNA inh,Ecoli rRNA inh OD600,Ecoli rRNA inh RFP,MLL AF4-AF9 inh,Vif TR-FRET
CN(C)CCCNC(=O)C[C@H]1C[C@H](C(=O)N2CCOCC2)[C@@]2(C)c3[nH]c4cc(CCC(=O)N(C)C)ccc4c3CCN2C1=O,19,12,-0.3,1.2,3%
COc1ccc(Br)cc1/C=C/C(=O)OCC(=O)NCCc1ccc(S(N)(=O)=O)cc1,2,-15,5.9,2.5,4%
Oc1ccccc1C1SC(c2ccccc2O)SC(c2ccccc2O)S1 (configuration not stated),-62,-78,-20,-2.0,-9%
CCCCNc1ccc2c(c1)C1CC2CCN1C(=O)OCc1ccccc1 (configuration not stated),-4,0,1.2,6.5,-5%
O=C(Cn1cc([N+](=O)[O-])ccc1=O)NCC1COc2ccccc2O1 (configuration not stated),-54,-65,-23,3.0,-9%
O=C(CCCN1CCN(c2ccccc2)CC1)c1ccc(F)cc1,8,11,6.6,3.4,-6%

# Continuation.
SMILES,Ecoli rRNA inh,Ecoli rRNA inh OD600,Ecoli rRNA inh RFP,MLL AF4-AF9 inh,Vif TR-FRET
COc1ccc(Cl)cc1NC(=O)C1CC(c2ccccc2Cl)=NO1 (configuration not stated),9,16,0.0,-0.7,-7%
CC(=O)C1=CN(Cc2ccccc2)CCC1=O,3,9,8.8,-0.3,0%
CC(=O)c1cccc(S(=O)(=O)N2CCC(C(=O)NC3CCCC3)CC2)c1,-1,7,-1.7,5.2,6%
CCCCC[C@@H]1C=C(C(=O)O)[C@H](c2ccc(Br)cc2)N1S(=O)(=O)c1ccc(C)cc1,-4,-25,-1.0,-4.6,-2%
O=C(NN=Cc1ccccc1Cl)c1cccc2ccccc12,12,19,-0.4,-8.6,-8%
Cc1cc(C)n2nc(N)nc2n1,14,14,0.7,-2.2,-8%
Cc1cccc(NC(=O)c2nc[nH]c2C(=O)Nc2cc(Br)ccc2F)c1,7,14,-0.6,-1.0,0%
c1cc2c3c(cccc3c1)-c1cnccc1-2,-17,-38,-5.5,0.7,-2%
COc1ccc(CCNC(=O)COC(=O)c2sc(C)nc2C)cc1,13,8,-0.2,14,-7%
C#CCN(C[C@@H]1[C@@H](OC(=O)NC2CC2)[C@@H](OC(=O)NC2CC2)CN(C(=O)OC(C)C)N1C(=O)OC(C)C)S(=O)(=O)c1ccc(C)cc1,-2,-4,-0.6,0.0,3%
O=C(NC1CCCCC1)NS(=O)(=O)c1ccc2c(c1)CCC2,-9,-20,-9.0,-1.1,0%
C[C@H]1CN([C@@H](C)CO)C(=O)CCCn2nncc2CO[C@H]1CN(C)C(=O)c1ccncc1,3,-1,-1.9,-1.7&-7.8&-0.8,6%
O=C(O)c1cc(N/C(=N\S(=O)(=O)c2ccc(F)cc2)c2ccccc2)ccc1O,0,1,0.1,-15,0%
CN=C1N(C)C[C@@H]2[C@@H]3C(=O)N(C)C(=O)[C@@H]3[C@](C)(C(=O)OC)N12,7,13,-0.4,1.5,0%
O=C(CCNC(=O)c1ccc(Cl)cc1)NCc1ccccc1Cl,-6,-4,-0.8,-0.4,-2%
Clc1ccc(CNc2ncnc3[nH]ncc23)cc1Cl,-48,-61,-13,-3.3,-10%
CCCn1cnc2c(SCCc3ccccc3)nc(N)nc21,-13,-28,-1.5,0.2,-1%
COc1ccc(CNC(=O)Cn2cc(C)c(=O)[nH]c2=O)cc1,0,7,-5.3,-1.0,-4%
COc1ccc(CNC(=O)CN2C(=O)NC3(CCCc4sccc43)C2=O)cc1 (configuration not stated),5,11,-0.2,4.6,2%
CCCn1c(N)c(C(=O)CSc2nnc(Cc3cccs3)n2C2CC2)c(=O)[nH]c1=O,3,4,-0.5,1.1,-1%

# Some values from above:
# CCCn1c(N)c(C(=O)CSc2nnc(Cc3cccs3)n2C2CC2)c(=O)[nH]c1=O in Ecoli rRNA inh OD600 is listed with 4
# Oc1ccccc1C1SC(c2ccccc2O)SC(c2ccccc2O)S1 (configuration not stated) in Ecoli rRNA inh is listed with -62
# Cc1cn([C@H]2C[C@H](O)[C@@H](CNC=O)O2)c(=O)[nH]c1=O in Ecoli rRNA inh OD600 is listed with 6
# COc1ccc(CCNC(=O)COC(=O)c2sc(C)nc2C)cc1 in Ecoli rRNA inh is listed with 13
# CN=C1N(C)C[C@@H]2[C@@H]3C(=O)N(C)C(=O)[C@@H]3[C@](C)(C(=O)OC)N12 in Ecoli rRNA inh OD600 is listed with 13

# (list continues)
SMILES,Ecoli rRNA inh,Ecoli rRNA inh OD600,Ecoli rRNA inh RFP,MLL AF4-AF9 inh,Vif TR-FRET
COc1ccc(CSc2nnc(NC(C)=O)s2)cc1[N+](=O)[O-],8,5,-1.0,-1.1,2%
COc1ccccc1CNC(=O)COC(=O)c1sc(C)nc1C,4,6,1.8,-1.4,-5%
Cc1ccc(-c2ccccc2C2=CC(=O)CC(C)(C)C2=O)cc1,-9,-11,-1.3,12,2%
CNC[C@@H]1OCc2ccccc2-c2ccccc2C(=O)N([C@H](C)CO)C[C@@H]1C,0&-2,7&1,-1.6&-1.2,-0.6,-5%
O=C(CCOc1ccccc1)Nc1ccc(S(=O)(=O)Nc2ncccn2)cc1,5,10,-2.5,-9.2,9%
COCCNC(=O)c1nn2c(C(F)(F)F)cc(-c3ccccc3)nc2c1Br,16,10,-1.0,-0.1,1%
Cc1nn(-c2nccs2)c2c1C(=O)CC(C)(C)C2Br (configuration not stated),10,-2,-0.1,3.8,0%
CCOC(=O)c1ccc(N(CCC2CO2)S(=O)(=O)c2ccc(C)cc2)cc1 (configuration not stated),-5,-19,0.8,-9.9,-4%
CC1(O)C(c2ccccc2)=Nc2ccccc21 (configuration not stated),-4,-6,-4.1,0.8,-5%
CN(C(=O)c1cccc(NC(=O)Cc2ccc(NC(=O)C3CCN(C(=O)C4CCCCC4)CC3)cc2)c1)C1CCC1,-2,-1,3.8,2.6,1%
Cc1occc1C(=O)N/N=C/C1=C(N2CCOCC2)C(=C/c2ccc(Cl)cc2Cl)/CC1,6,5,2.4,1.7,-5%
CC1=C(C(=O)N(C(C)C)C(C)C)CC(CC(=O)NCc2cccs2)C(=O)N1Cc1ccccc1 (configuration not stated),4,4,5.6,1.6,5%
C[C@@H]1CN([C@H](C)CO)C(=O)CCCn2nncc2CO[C@H]1CN(C)Cc1ccccc1C(=O)O,2&1,13&5,-3.5&1.1,-7.4&-23,1%
CCCc1cc(=O)[nH]c(SCC(=O)N(CCC#N)c2ccc3c(c2)OCCO3)n1,6,2,0.5,5.5,-2%
O=c1oc(-c2ccccc2)c(-c2ccccc2)c2ccccc12,-22,-28,-8.7,4.9,2%
COc1ccc(OCC(CO)N2CCN(c3ccccc3)CC2)cc1 (configuration not stated),13,15,4.5,-0.9,-1%
C[C@H](CO)N1C[C@H](C)[C@@H](CN(C)S(=O)(=O)c2cn(C)cn2)Oc2c(NS(=O)(=O)c3cn(C)cn3)cccc2C1=O,5&-3,7&1,-1.2&-2.7,-4.7&0.6,-3%
COc1ccc(C(=O)NC(CCSC)C(=O)NCc2nnc3ccccn23)cc1 (configuration not stated),1,1,0.4,2.5,-4%
c1ccc(NCCc2ccccn2)cc1,5,8,-2.9,-0.3,-5%
Cc1cnn(C(=O)Cn2nc(C(F)F)c(Br)c2C)c1,6,9,2.3,-9.0,1%
CC(C)(C)N1CC(C(=O)Nc2ccc(C(N)=O)cc2)CC1=O (configuration not stated),1,8,-3.8,1.3,-2%
Cc1ccc(NC(=O)CCS(=O)(=O)c2ccccc2)cc1S(=O)(=O)N1CCCCCC1,-10,-33,-0.6,-8.5,-1%
CC(=Nc1ccccc1)C1=C(O)C(Cc2cccc(F)c2)NC1=O (configuration not stated),-1,-5,-2.8,-0.6,2%
O=C(NC1CCCCC1)c1ccc([N+](=O)[O-])cc1,13,24,6.1,-1.8,0%
COc1ccc(-c2ccc3c(c2)S(=O)(=O)c2cccc(C(=O)N4CCN(c5ccccn5)CC4)c2C3=O)cc1OC,-4,-7,0.4,-1.1,2%
CN1OC[C@@H]2CN(Cc3cc(Cl)cc(Cl)c3)[C@H](c3cccc(-c4ccc(C#N)cc4)c3)C[C@@H]21,3,4,0.1,3.4,-2%
O=C(COC(=O)Cn1cc(C(F)(F)F)ccc1=O)NCc1ccccc1,2,4,-1.7,-27,-8%
O=C1NC(=S)NC(=O)C1Nc1ccc(Cl)cc1,-1,8,6.1,-0.1,4%
Cc1ccc(NC(=O)CSCC(=O)OC(C)C(=O)Nc2ccccc2C)cc1 (configuration not stated),6,9,1.5,-0.8,9%
C[C@H](O)[C@@H]1C(=O)N2CCc3c([nH]c4ccccc34)[C@@H]2C[C@@H]1N(C)C(=O)Nc1ccccc1,-5,-7,-1.1,2.7,3%
COc1cc2c(cc1OC)[C@@H](NC(=O)CCc1ccccc1)[C@H](OCc1ccccc1)C2,10,20,-1.7,-0.8,0%
O=C(Nc1ccc(OC(F)(F)F)cc1)c1cccc(-n2cnnn2)c1,1,1,0.8,4.0,-2%
CN(CCOc1ccccc1)C(=O)c1cc(S(=O)(=O)N2CCOCC2)c(Cl)cc1Cl,-16,-9,9.2,4.3,-1%
COc1ccc(CCNC(=O)CCCn2c(=S)[nH]c3ccsc3c2=O)cc1OC,3,6,2.8,-2.8,-10%
O=C(Nc1ccc(C(=O)N2CCOCC2)cc1)c1ccccc1Cl,12,11,1.2,2.3,-8%

# Compound activity (PubChem)
